Screening data (PubChem BioAssay)
HNF4A DNA FP = change in binding of human HNF4 alpha to DNA. P41235. HNF4a-FITC DNA binding, fluorescence polarization, 1 h. activity change, % at 10 µM. 0.3% of 360,000 active. AID 1224865; in the data active means activity change above about 30%, passing the limit was not always enough;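 further: controls were the assay level and a saturating level of protein; the project sought stronger binding though the title names inhibitors; some compounds called inactive have numbers as strong as hits; positive values seem to mean higher polarization but the record does not say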
Target sequence (P41235 whole entry, looked up): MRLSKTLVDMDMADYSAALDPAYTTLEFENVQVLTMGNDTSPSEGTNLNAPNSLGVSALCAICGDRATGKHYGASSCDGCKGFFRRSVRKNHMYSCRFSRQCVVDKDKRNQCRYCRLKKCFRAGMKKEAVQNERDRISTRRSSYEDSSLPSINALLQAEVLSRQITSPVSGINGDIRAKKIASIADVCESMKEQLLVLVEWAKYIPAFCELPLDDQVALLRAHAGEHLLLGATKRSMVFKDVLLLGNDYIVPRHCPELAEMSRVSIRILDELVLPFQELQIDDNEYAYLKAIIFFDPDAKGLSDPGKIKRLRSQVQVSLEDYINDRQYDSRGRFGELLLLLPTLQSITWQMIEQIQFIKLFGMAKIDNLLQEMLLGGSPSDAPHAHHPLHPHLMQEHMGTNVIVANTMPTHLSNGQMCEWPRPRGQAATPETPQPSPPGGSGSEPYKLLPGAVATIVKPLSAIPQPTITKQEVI
UCH37 inh = inhibitors of human deubiquitinating enzyme UCH37. 0.33% of 330,000 active. inhibition, % (test concentration not listed). purified proteasome/UCH37, Ub-AMC cleavage fluorescence;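 active means mean of two replicates above 20%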;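 further: 0% = compound-free wells with enzyme and 100% = wells lacking proteasome; stock transfer was 100 nL into about 20 µL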
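system = Proteasome-associated human UCH37 deubiquitinase | amount = 0.15 nM proteasome as dispensed | medium = pH 7.4 Tris-HCl (50 mM) with ovalbumin, ATP-MgCl2, DTT | incubation = 30 min preincubation with enzyme, 25 min cleavage at room temperature | detection = AMC fluorescence 355/460 nm | read-out basis = percent inhibition | controls = no-proteasome and no-compound wells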
Beta2AR agonist = agonists of human beta-2 adrenergic receptor inducing internalization; P07550; Am2.2-beta2AR cells, FAP receptor internalization, flow cytometry; reference of the scale not given here; response, % (test concentration not listed); 0.43% of 340,000 active; AID 504454;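 active means response above a set limit, near 3 SD of response in nonfluorescent compounds, cut at about 42% in these data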;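 further: stock transfer was 100 nL into about 11 µL; a reference agonist was the positive control; negative values mostly stem from fluorescent compounds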
Target sequence (P07550 whole entry, looked up): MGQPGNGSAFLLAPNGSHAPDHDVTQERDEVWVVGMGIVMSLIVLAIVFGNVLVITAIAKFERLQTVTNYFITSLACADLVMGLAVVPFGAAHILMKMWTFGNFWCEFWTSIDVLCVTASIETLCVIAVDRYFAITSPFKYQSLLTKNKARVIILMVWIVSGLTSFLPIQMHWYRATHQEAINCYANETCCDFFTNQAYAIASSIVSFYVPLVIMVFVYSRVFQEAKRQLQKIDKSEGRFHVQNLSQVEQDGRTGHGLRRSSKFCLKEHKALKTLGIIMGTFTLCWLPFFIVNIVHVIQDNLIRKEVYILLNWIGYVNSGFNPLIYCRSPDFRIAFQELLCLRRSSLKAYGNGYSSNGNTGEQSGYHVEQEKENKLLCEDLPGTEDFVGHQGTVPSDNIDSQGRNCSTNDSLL
FGF22 binding = FGF22 (human) thermal shift binding. Q9HCT0. recombinant FGF22 thermal shift, SYPRO orange fluorescence; percent of sucrose octasulfate shift, DMSO zero. calls only at 9.99 µM. 1.5% of 340,000 active;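 active means melting point raised past a set limit in the mean and every replicate; three in four hits are not shown here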
Target sequence (Q9HCT0 whole entry, looked up): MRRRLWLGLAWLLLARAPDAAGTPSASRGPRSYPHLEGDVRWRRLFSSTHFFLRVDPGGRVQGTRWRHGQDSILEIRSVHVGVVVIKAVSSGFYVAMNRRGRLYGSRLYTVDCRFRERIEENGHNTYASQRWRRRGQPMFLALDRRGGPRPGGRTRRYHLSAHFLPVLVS
Ecoli growth = blocks Escherichia coli growth | OD600, 23 h; stronger effect = lower value | OD600 absorbance (concentration not given with the values) | 0.21% of 330,000 active;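 active means OD600 absorbance below the run mean of sample wells minus 3.6 SD, in any replicate, cut at about 0.56 in these data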;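 further: stock transfer was 300 nL into about 60 µL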
ALR inh = blocks human ALR sulfhydryl oxidase activity | P55789 | purified ALR, DTT oxidation, H2O2 HRP-luminol luminescence | inhibition, % (concentration not given with the values) | 3.8% of 290,000 active | AID 485317;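 active means mean and each replicate at 75% or more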;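 further: stock transfer was 7.5 nL into about 7.5 µL; 0% = neutral wells and 100% = wells with inactivated enzyme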
Ecoli rRNA inh = selective bacterial rRNA inhibition in E. coli | E. coli WT GFP vs humanized-ribosome RFP mutants, fluorescence, 24 h; stronger effect = lower value; DMSO median 0, no signal -100 | GFP signal change (wild-type ribosome), % (test concentration not listed) | 1.6% of 350,000 active;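 active means significant combined selectivity score with lowered wild-type GFP, culture density cut under 30%, mutant RFP and density less affected; inactive means any of these conditions unmet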; further: one replicate is shown; some compounds called inactive have numbers as strong as hits
Ecoli rRNA inh OD600 = further read-out of Ecoli rRNA inh, marked with its call; OD600 change, %; measured here: OD600 growth;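 optical density of the mix in the first replicate; 0 = DMSO median and -100 = no signal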
Ecoli rRNA inh RFP = further read-out of Ecoli rRNA inh, marked with its call; RFP signal change, %; measured here: RFP humanized mutant strains;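 first replicate; 0 = DMSO median and -100 = no signal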
The depositor's hits bear a star; i = inactive; / = no result given. This is a subset; count on the stated rates, not on these rows.

SMILES	HNF4A DNA FP	UCH37 inh	Beta2AR agonist	FGF22 binding	Ecoli growth	ALR inh	Ecoli rRNA inh	Ecoli rRNA inh OD600	Ecoli rRNA inh RFP
O=C1S/C(=C\c2ccc(O)c([N+](=O)[O-])c2)C(=O)N1Cc1cccc([N+](=O)[O-])c1	-0.6	/	8.1	i	/	-9.4	17.2	8.1	-0.2
C=CCn1c(N(C)C)nc2c1c(=O)[nH]c(=O)n2C	2.9	4.2	-13.2	i	0.748	-4.6	6.8	4.2	0.1
Cc1ccc(-c2nnn(CC(=O)N(CCO)C(C(=O)NC3CCCCC3)c3ccncc3)n2)o1 (stereo unspecified)	0.8	1.2	-7.9	i	0.685	-2.7	4.5	4.5	0.0
CNc1nnc(-c2ccc(N(C)C)cc2)s1	-1.9	i	-3.3	/	0.635	99.5*	/	/	/
CCCCn1c2c(c(=O)n(C)c1=O)C(c1ccc(OC)cc1)N1CCCCCC1=N2 (stereo unspecified)	-1.1	-17.0	5.4	/	0.701	-1.6	/	/	/
O=C1C(=O)N(Cc2cccnc2)C(c2ccc(Br)cc2)/C1=C(\O)c1ccc2c(c1)OCCO2 (stereo unspecified)	2.1	9.7	-1.1	i	0.684	-1.3	-3.1	13.5	-2.2
COc1ccc(-c2noc(-c3ccccc3C(=O)N3CCOCC3)n2)cc1	1.4	-0.1	-10.3	/	0.733	-2.6	/	/	/
CC(C)C[C@H]1CN(CCCC[C@H]2CNC(=O)C(=O)N2Cc2ccccc2)C(=O)C(=O)N1CCC1CCCCC1	1.6	/	/	i	/	/	12.3	5.8	5.0
CC(C)(C)c1cnnn1-c1ccc([N+](=O)[O-])cc1	-0.9	1.9	-3.5	i	0.659	-13.5	14.8	12.6	-0.1
CC(Oc1ccc(Cl)cc1Cl)C(=O)NNC(=O)C(=O)N1CCCC1 (stereo unspecified)	-1.1	/	-2.5	i	/	-0.1	-1.2	-9.5	1.2
Cc1ccn2c(=O)c(NC(=O)c3ccc4c(c3)OCO4)c(C)nc2c1	0.3	/	/	i	/	/	8.4	14.9	4.9
O=C(COC(=O)c1ccccn1)NC1CCCCC1	-3.6	0.7	-0.7	/	0.74	-16.3	/	/	/
CC1CCCN(C(=O)Cn2c(=O)oc3cc(S(=O)(=O)N4CCCCC4)ccc32)C1 (stereo unspecified)	-0.9	8.6	-6.9	i	0.713	-6.4	6.0	12.6	0.5
Cc1nn2cc(-c3ccc(Cl)cc3)cnc2c1Br	-7.3	-0.4	5.8	i	0.666	-3.1	-0.9	-4.7	-1.9
COc1ccccc1CN1CCNC(=O)C1CC(=O)NC1Cc2ccccc2C1 (stereo unspecified)	-3.8	0.7	-3.9	i	0.703	-4.6	/	/	/
CN(C/C=C/c1ccccc1)C1CCCCC1	2.0	-0.9	1.9	i	0.673	-0.6	14.1	14.6	1.1
COc1ccccc1N1CC(C(=O)Nc2ccc(N3CCOCC3)cc2)CC1=O (stereo unspecified)	0.7	4.7	1.3	i	0.686	/	3.0	4.4	-1.2
O=C1CSC(c2cn(-c3ccccc3)nc2-c2cc3ccccc3o2)N1Cc1ccccc1 (stereo unspecified)	-0.8	-8.7	7.1	/	0.72	-16.0	/	/	/
C#CCNC(=O)C[C@@H]1C[C@@]2(C(=O)OC)CCCCC=C2N(Cc2cccc3ccccc23)C1=O	-4.6	/	/	i	/	/	-18.0	-56.8	34.5
O=C(CNC(=O)c1ccc(OC(F)F)cc1)NC1CCCc2ccccc21 (stereo unspecified)	1.4	2.3	2.9	i	0.703	24.2	0.7	-10.1	1.5
Nc1nc(N)c2c(n1)CCCC2	-1.0	5.0	3.1	i	0.661	-32.4	4.9	10.6	-0.2
COc1ccc(C(=S)N2CCOCC2)cc1OC(=O)c1cc(OC)c(OC)c(OC)c1	-1.9	1.5	-1.0	i	0.625	/	-11.3	-13.8	-1.3
O=C(Nc1nnc(-c2ccccn2)o1)c1ccc(Br)cc1	-0.7	1.1	-12.8	i	0.612	8.4	-32.4	-41.0	0.5
O=C(NC1CCCCCC1)c1cc(S(=O)(=O)N2CCC3(CC2)OCCO3)ccc1F	1.2	2.1	-13.0	i	0.681	/	0.4	7.3	-2.3
CC(N=C1NS(=O)(=O)c2ccccc21)C(=O)OCC(=O)N(C)C1CCS(=O)(=O)C1 (stereo unspecified)	-0.4	-2.3	0.5	i	0.671	-2.3	9.0	10.0	0.8
COc1cccc2c(=O)c3c([nH]c12)OC(C)(C)C3	7.8	2.4	2.4	i	0.682	7.8	-0.8	4.0	-2.8
CCCc1cc(=O)oc2cc(OC(C)C(=O)NCc3ccccn3)c(Cl)cc12 (stereo unspecified)	0.4	-10.4	-1.6	i	0.679	-1.5	-0.8	3.3	-0.5
COc1ccc(N2CCC(CNC(=O)Nc3ccccc3)C2)cc1 (stereo unspecified)	9.5	6.0	4.8	/	0.666	56.8	/	/	/
COc1ccc(C(C(=O)NCC2CCCO2)N(C(=O)Cn2nnc3ccccc32)c2ccccc2C(C)=O)cc1OC (stereo unspecified)	1.2	3.4	-3.7	i	0.722	/	2.5	4.5	-2.3
COc1ccccc1NC(=O)C(C)OC(=O)C(C)SCC(=O)Nc1ccc(C)cc1 (stereo unspecified)	1.3	0.9	-0.5	i	0.684	/	-11.5	-12.9	5.3
COc1ccc(OCC(=O)Nc2cc(S(=O)(=O)N3CCCCC3)ccc2OC)cc1	0.2	1.9	4.9	/	0.689	-17.5	-13.9	-10.2	1.5
COc1ccc(S(=O)(=O)Oc2ccccc2C(N)=O)cc1	-1.7	2.5	-4.6	i	0.686	/	18.1	15.6	0.0
CC(C)(C)OC(=O)N1CCOCCOCCN(C(=O)OC(C)(C)C)CCOCCOCC1	-2.0	2.7	-1.2	/	0.684	/	/	/	/
CCOCCOc1cc(NCc2ccccc2)c2ncn(C(C)C)c2c1	7.1	1.0	3.7	i	0.714	/	3.6	4.1	-1.5
CCn1c(SCc2cccnc2)nnc1-c1c[nH]c2ccccc12	-3.0	3.5	-3.1	i	0.77	-6.3	-4.8	2.0	-6.6
Oc1c(Cl)cc(Cl)cc1CNc1ccc(Br)cn1	-0.7	5.3	18.5	/	0.683	92.8*	/	/	/
O=C1C=CC(=O)c2c(O)c(N3CCN(CCOCCO)CC3)c(Br)c(O)c21	-79.4	/	66.5*	i	/	/	/	/	/
CC1CCCCC1NC(=O)CSc1nncs1 (stereo unspecified)	-0.3	-2.8	-0.5	/	0.688	-3.2	/	/	/
COC(=O)C1=C(C)NC(=O)CC1c1ccccc1 (stereo unspecified)	0.7	0.6	3.7	/	0.768	-9.3	/	/	/
COc1cc(/C=N/NC(=O)c2ccc(N)cc2)ccc1OC(=O)c1cccc(C)c1	0.1	/	1.7	i	/	25.1	0.4	2.9	-1.1
Cc1ncoc1C(=O)N1CCCC(C(=O)c2ccc3c4c(cccc24)CC3)C1 (stereo unspecified)	1.8	-116.8	-2.5	i	0.699	-5.9	-3.8	-6.8	2.1
Cc1ccc(Cl)c(OCCCCN2CCC(C)CC2)c1	4.5	3.1	5.5	i	0.66	/	8.8	9.5	0.0
CCCCOc1ccc(C2NC(=O)NC(C)=C2C(C)=O)cc1OCC (stereo unspecified)	0.2	6.3	9.6	i	0.723	-2.5	-3.4	9.3	-0.6
O=C(CSc1nnc(NC(=O)C2CC2)s1)NCc1ccccc1Cl	0.8	-2.0	-6.2	i	0.725	-10.2	11.9	16.9	3.6
CCOCCCNC(=O)C(NC(=O)Cc1cccs1)c1ccccc1 (stereo unspecified)	3.7	1.4	2.6	i	0.672	/	-3.1	2.5	-4.4
CN(C)C(=O)c1ccc(NC(=O)CC2SC(N3CCCC3)=NC2=O)cc1 (stereo unspecified)	-3.0	1.0	-3.2	i	0.615	2.2	8.4	8.8	-1.0
NNC(=O)C1SCCN1S(=O)(=O)c1ccc(Cl)cc1 (stereo unspecified)	2.3	0.9	2.3	i	0.647	16.6	10.9	6.4	3.1
CCN1CCN(c2ccc(S(=O)(=O)N3CCOCC3)cc2NC(=O)C(C)Oc2ccc(F)cc2)CC1 (stereo unspecified)	0.0	1.6	1.9	i	0.65	-6.9	1.3	-2.8	0.0
O=C(CN(C(=O)c1nsc(Cl)c1Cl)c1cccc(F)c1)NC1CCCC1	0.5	0.3	5.2	i	0.651	1.6	-5.3	-3.9	1.9
COc1cc2c(C(=O)NCc3ccc4c(c3)OCO4)cn(CC(C)C)c(=O)c2cc1OC	1.4	2.6	10.2	/	0.665	-0.6	/	/	/

Exported with two lines to a compound: entries from further up.
Order of results – HNF4A DNA FP | UCH37 inh | Beta2AR agonist | FGF22 binding | Ecoli growth | ALR inh | Ecoli rRNA inh | Ecoli rRNA inh OD600 | Ecoli rRNA inh RFP
CCn1c(SCc2cccnc2)nnc1-c1c[nH]c2ccccc12
    -3.0 | 3.5 | -3.1 | i | 0.77 | -6.3 | -4.8 | 2.0 | -6.6
CCCCOc1ccc(C2NC(=O)NC(C)=C2C(C)=O)cc1OCC (stereo unspecified)
    0.2 | 6.3 | 9.6 | i | 0.723 | -2.5 | -3.4 | 9.3 | -0.6
NNC(=O)C1SCCN1S(=O)(=O)c1ccc(Cl)cc1 (stereo unspecified)
    2.3 | 0.9 | 2.3 | i | 0.647 | 16.6 | 10.9 | 6.4 | 3.1

(cont.)
SMILES	HNF4A DNA FP	UCH37 inh	Beta2AR agonist	FGF22 binding	Ecoli growth	ALR inh	Ecoli rRNA inh	Ecoli rRNA inh OD600	Ecoli rRNA inh RFP
O=C1NC(c2ccc(Cl)c([N+](=O)[O-])c2)Nc2ccccc21 (stereo unspecified)	1.7	3.8	-5.0	i	0.653	-2.4	-8.3	-5.2	0.0
Cc1ccccc1NC1=NS(=O)(=O)c2ccccc21	-0.7	4.1	8.2	/	0.681	-3.4	/	/	/
CC1(C)Cc2c(sc(NC(=O)C(=O)N3CCCCC3)c2C(=O)O)CO1	6.0	5.1	-0.1	i	0.694	-22.1	-2.4	0.4	-2.6
CCN1CCN(S(=O)(=O)CC2(C)C3CCC2(C)C(=O)C3Br)CC1 (stereo unspecified)	-3.4	0.2	3.3	i	0.7	/	3.5	0.7	-2.8
O=C(NCc1cn2ccccc2n1)C1CCC(=O)N(Cc2ccccc2F)C1 (stereo unspecified)	-3.1	-2.4	0.8	i	0.695	-2.7	2.7	8.2	-0.6
O=C(O)CC1CCCC(c2ccccc2)C1=O (stereo unspecified)	-1.1	1.8	1.1	/	0.707	-5.7	/	/	/
CCN(CC)S(=O)(=O)c1ccc(N2CCOCC2)c(NC(=O)c2cc(=O)[nH]c3ccccc23)c1	-0.8	0.6	-6.5	i	0.715	6.5	13.1	9.9	2.9
CCOC(=O)c1cc(-c2ccccc2)sc1NC(=O)C(C)N1C(=O)c2ccccc2C1=O (stereo unspecified)	0.8	0.8	-0.7	i	0.736	-9.8	3.8	3.8	-2.8
CC(C)CC1NC(=O)N(CC(=O)Nc2cccc(Br)c2)C1=O (stereo unspecified)	2.7	0.9	0.1	i	0.67	-4.8	/	/	/
NS(=O)(=O)c1ccc(NC(=O)COC(=O)CSCc2ccc(F)cc2)cc1	4.4	-0.8	9.8	i	0.723	0.2	-5.0	-5.3	-0.2
O=C(CSc1nc(-c2ccc(F)cc2)cs1)N1CCc2ccccc21	-7.1	0.4	1.0	i	0.759	-6.1	/	/	/
Cc1cc(-n2ccnc2)n2c(nc3ccccc32)c1C#N	11.0	-19.5	-12.8	i	0.658	/	4.9	8.8	-1.2
CC(C)C[C@@H](CN)NC(=O)c1nc[nH]c1C(=O)N[C@@H](CC(C)C)C(=O)CNC[C@H](C)NC(=O)c1nc[nH]c1C(=O)N[C@@H](CC(=O)O)C(=O)O	-0.9	/	10.1	i	/	/	23.6	9.1	0.5
